RGS16-Gao HTS = RGS16-Galphao interaction regulator (human); binding response (% of control), % at 10 µM; bead-based flow cytometry RGS16-Galphao binding, fluorescence; actives lie on both sides; O15492+P09471; actives 0.38% (n = 220,000); AID 1441;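 active = below 25% or above 175%, edge rows of some plates excepted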;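 note: Galphao activated by GDP with aluminum fluoride before binding; 100% = wells without compound and 0% = beads without RGS; some results beyond the cut were filed as inactive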
Target sequence (O15492 whole entry, looked up): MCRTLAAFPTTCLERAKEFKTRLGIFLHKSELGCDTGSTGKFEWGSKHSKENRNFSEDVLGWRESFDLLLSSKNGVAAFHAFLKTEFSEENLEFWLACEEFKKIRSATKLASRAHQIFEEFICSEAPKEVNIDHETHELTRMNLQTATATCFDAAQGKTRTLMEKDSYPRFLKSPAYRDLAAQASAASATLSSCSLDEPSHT
Target sequence (P09471 whole entry, looked up): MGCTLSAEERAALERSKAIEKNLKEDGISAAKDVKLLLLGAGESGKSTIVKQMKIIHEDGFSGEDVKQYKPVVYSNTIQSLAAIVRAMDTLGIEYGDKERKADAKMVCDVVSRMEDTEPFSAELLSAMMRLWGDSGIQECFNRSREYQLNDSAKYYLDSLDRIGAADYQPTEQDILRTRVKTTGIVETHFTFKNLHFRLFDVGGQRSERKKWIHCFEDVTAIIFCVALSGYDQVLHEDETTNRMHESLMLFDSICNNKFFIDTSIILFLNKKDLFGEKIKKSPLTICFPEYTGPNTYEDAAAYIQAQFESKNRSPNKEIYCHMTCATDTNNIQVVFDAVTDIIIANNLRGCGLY
GALR2 ag = activates the human galanin receptor 2; GALR2-expressing cells, agonist activation read-out; activation, %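 (tested at 5 µM)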; O43603; actives 0.48% (n = 140,000);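 active = above mean plus 3 SD of all compounds, about 5% in these data, not always enough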;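 note: 0% = vehicle buffer wells and 100% = reference agonist at full effect; tested in CHO reporter cells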
Target sequence (O43603 whole entry, looked up): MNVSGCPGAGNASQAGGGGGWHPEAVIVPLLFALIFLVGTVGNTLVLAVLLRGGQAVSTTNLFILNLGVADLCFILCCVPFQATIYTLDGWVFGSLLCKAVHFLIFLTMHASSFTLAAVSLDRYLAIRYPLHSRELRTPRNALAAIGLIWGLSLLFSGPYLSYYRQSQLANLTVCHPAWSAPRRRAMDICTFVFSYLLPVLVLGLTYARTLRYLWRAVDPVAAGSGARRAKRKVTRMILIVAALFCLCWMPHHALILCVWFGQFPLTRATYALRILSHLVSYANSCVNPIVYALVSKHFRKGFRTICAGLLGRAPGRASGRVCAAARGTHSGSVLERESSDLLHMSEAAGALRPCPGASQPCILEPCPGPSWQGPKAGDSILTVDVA
PKD1 inh = inhibitors of human PKD1 kinase; Q15139; PKD1 kinase fluorescence polarization assay; inhibition, %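 (about 10 µM by stock and volumes)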; actives 0.056% (n = 200,000);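 active = inhibition of 50% or more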;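 note: controls were vehicle for no effect and a reference inhibitor for full effect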
HSV replic up = HSV replication enhancement; HSV replication augmentation in cells, fold increase; actives 0.005% (n = 220,000); maximum fold increase;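 active = peak rise of 1.5-fold or more in the series; tested in PC3 cells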;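 note: first round at 10 µM; read as green reporter fluorescence; hits show the peak of a series up to 25 µM; 1 = signal of infected wells without compound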
Insulin prom inh = TRM-6 insulin promoter activity inhibition; TRM-6 cells (human fetal islet line), insulin promoter-eGFP reporter, imaging; reporter expression induced with tamoxifen; inhibition, % at 2 µM; actives 0.9% (n = 130,000);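 active = inhibition above the mean plus 3 SD, with well images judged a real hit on visual review, cut at about 60% in these data, passing the limit was not always enough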
Insulin prom inh cell count = also measured in Insulin prom inh; calls as there; normalized cell count, %; measured here: cell count, toxicity; reference of the scale not given here;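 cells exposed to compound for 48 h; stained nuclei by imaging scaled within each plate; lower means fewer cells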
HSV replic up primary fold = recorded beside HSV replic up, whose call it bears; fold increase; compound at 10 µM; measured here: primary screen fold increase 10 uM; tested in PC3 cells;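 GFP signal in the first replicate; 1 = infected wells without compound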
Numbers without * were called inactive; i = inactive; / = no result given.

SMILES	RGS16-Gao HTS	GALR2 ag	PKD1 inh	HSV replic up	HSV replic up primary fold	Insulin prom inh	Insulin prom inh cell count
CSCCC(NC(=O)OC(C)(C)C)C(=O)NC(C(=O)NC(CC(C)C)C(N)=O)C(C)C (stereo unspecified)	105	-1.7	-13	i	1.1	-37	115
C=CCn1c(O)c(N=NC(=O)C(O)c2ccccc2)c2ccccc21 (stereo unspecified)	106	/	/	i	0.91	/	/
CNc1nc(SC)nc2ccsc12	99	-1.9	-7	i	0.86	-3	35
CSc1nc(SCC(=O)NCC2CCCO2)c2c3c(sc2n1)CN(C)CC3 (stereo unspecified)	99	/	/	i	0.69	/	/
Cc1nn(-c2ccccc2)c(C)c1/C=C/C(=O)OCC(=O)Nc1ncc(C(F)(F)F)cc1Cl	100	-0.8	-9	i	0.94	/	/
COc1ccc(/C(C)=N\Nc2nc(-c3ccccc3)cc(=O)[nH]2)cc1	106	-0.2	-5	i	0.77	9	117
O=[N+]([O-])c1ccccc1/C=N/n1c(-c2cccnc2)n[nH]c1=S	87	0.5	-2	i	0.94	0	103
COCCNC(=O)CNC(=S)N(Cc1ccccc1)Cc1cccnc1	50	0.5	13	i	1.1	/	/
CSc1ccccc1NC(=O)CN(C)Cc1cccc(Cl)c1	100	/	-6	i	1.1	-83	136
CCCN(CCC)C(=O)c1ccc2c(=O)n(Cc3ccco3)c(=S)[nH]c2c1	99	/	-4	/	/	21	159
Nc1nccc(-c2ccc(-n3cccc3)cc2)n1	100	/	-5	i	1	/	/
CCOc1ccc(OCC)c(NC(=O)C2COc3ccccc3O2)c1 (stereo unspecified)	101	-2.5	-6	i	0.97	/	/
COc1ccc(CNC(=O)Cn2nnc3ccccc3c2=O)cc1	103	/	/	i	1	/	/
CCOc1ccccc1NC(=O)c1ccoc1C	100	-2.2	-14	i	1	36	95
CN(C)/C=C1\C=C(c2ccccc2)OC1=O	86	-0.8	-3	i	1.1	-12	98
COc1ccc2c(c1)CCCC21NC(=O)N(CC(=O)NC(=O)NCc2ccccc2)C1=O (stereo unspecified)	102	/	-7	i	0.92	/	/
Cc1ccc(OCC(O)CN2CCN(c3ccccn3)CC2)c(C)c1 (stereo unspecified)	98	/	0	i	0.95	/	/
CCOC(=O)c1cn2nc(N3CCCC3)ccc2n1	100	/	/	i	1	/	/
COc1cccc2cc(C(C)N(CCCN3CCOCC3)C(=O)Nc3ccccc3)oc12 (stereo unspecified)	98	1.8	-3	i	0.97	6	101
Cc1nc2ccccc2c2oc(C(=O)N3CCN(C4CCCCC4)CC3)cc12	99	0.1	-4	i	1.3	-43	93

The closing 3 entries of the part before lead into the next.
SMILES	RGS16-Gao HTS	GALR2 ag	PKD1 inh	HSV replic up	HSV replic up primary fold	Insulin prom inh	Insulin prom inh cell count
CCOC(=O)c1cn2nc(N3CCCC3)ccc2n1	100	/	/	i	1	/	/
COc1cccc2cc(C(C)N(CCCN3CCOCC3)C(=O)Nc3ccccc3)oc12 (stereo unspecified)	98	1.8	-3	i	0.97	6	101
Cc1nc2ccccc2c2oc(C(=O)N3CCN(C4CCCCC4)CC3)cc12	99	0.1	-4	i	1.3	-43	93
CCC(CC)C(=O)Nc1cc(Cl)ccc1C	101	/	-2	i	0.96	/	/
Cc1nc(SCC(=O)Nc2ccccc2C(F)(F)F)c2c(=O)n(C)c(=O)n(C)c2n1	/	-0.1	2	/	/	-18	233
CC(C)(C)C(=O)CSc1nc(N)cc(=O)[nH]1	103	/	-5	i	0.96	/	/
COc1ccc(NC(=S)Nc2ccc(C)c(Cl)c2)cc1OC	103	/	-5	i	0.97	/	/
O=C(Cn1cnc2c(cnn2-c2ccccc2)c1=O)OCc1ccccc1	101	-5.0	-11	i	0.95	10	127
CCOC(=O)CSC1=C(C#N)C(c2ccccc2)C(C(C)=O)=C(C)N1 (stereo unspecified)	103	-1.2	-8	i	0.95	-31	108
O=C(Nc1ccc(F)cc1)Nc1ccccc1F	101	/	1	i	1.1	/	/
CCOc1cc(Cl)c(NC(=O)c2ccco2)cc1OCC	110	-0.3	2	i	0.88	23	144
COC(=O)c1ccc(C(=O)OC)c(NC(=O)COC(=O)C2CCC(C(C)(C)C)CC2)c1 (stereo unspecified)	94	-0.5	2	i	0.75	23	91
COC(=O)c1c(NC(=O)C2c3ccccc3Oc3ccccc32)sc(C)c1C	102	-2.2	6	i	0.99	/	/
CCn1c(CNc2ccccc2Cl)nnc1SCC(=O)OC1CCCCC1	98	0.3	-17	i	0.79	/	/
Cc1ccccc1NC(=O)CN1C(=O)C2C3CC(C(Br)C3Br)C2C1=O (stereo unspecified)	89	-0.8	-10	i	0.97	/	/
CSC1=C(C#N)C(c2ccccc2Cl)C2=C(N1)c1ccccc1C2=O (stereo unspecified)	109	0.7	-6	i	1	/	/
CN1c2ccccc2C2(C)CCCC3=Cc4cccc([N+](=O)[O-])c4OC312 (stereo unspecified)	50	-1.3	-7	i	0.99	/	/
O=C(O)CN(c1ccccc1[N+](=O)[O-])S(=O)(=O)c1ccccc1	118	/	5	i	0.96	27	135
C=CCN=C(NC#N)SCCc1ccccc1	104	-0.8	-8	i	1.3	/	/
O=C1Nc2ccc([N+](=O)[O-])cc2OC1CCN1CCCC1 (stereo unspecified)	104	/	1	i	0.83	/	/
O=C(C1CCCN(Cc2cccs2)C1)N1CCCCCC1 (stereo unspecified)	105	-2.4	-5	i	0.92	/	/
c1ccc(-c2ccc(-c3[nH]ncc3CN3CCC(N4CCSCC4)CC3)cc2)cc1	101	/	-1	i	0.77	/	/
COCCCN1C(=O)c2ccc(C(=O)Nc3ccc(OC)cc3OC)cc2C1=O	104	-1.5	-3	i	1	/	/

Complete entries from above. Order of values: RGS16-Gao HTS, GALR2 ag, PKD1 inh, HSV replic up, HSV replic up primary fold, Insulin prom inh, Insulin prom inh cell count
`O=C(Nc1ccc(F)cc1)Nc1ccccc1F` is entered as 101, /, 1, i, 1.1, /, /
`CSc1nc(SCC(=O)NCC2CCCO2)c2c3c(sc2n1)CN(C)CC3` (stereo unspecified) is entered as 99, /, /, i, 0.69, /, /

Next structures
SMILES	RGS16-Gao HTS	GALR2 ag	PKD1 inh	HSV replic up	HSV replic up primary fold	Insulin prom inh	Insulin prom inh cell count
N/C(=N\c1nc2ccccc2o1)NC(=O)C(Cc1ccccc1)N1C(=O)c2ccccc2C1=O (stereo unspecified)	103	-2.7	-6	i	0.92	/	/
O=[N+]([O-])c1ccc(C2CCCC/C2=N/OCc2ccccc2F)c([N+](=O)[O-])c1 (stereo unspecified)	96	-2.1	-8	i	0.84	0	97
Cc1nn(Cc2ccccc2)c(=O)c2nn(-c3ccc(Cl)cc3)c(C)c12	106	0.4	-6	i	0.9	8	89
O=C(NCc1cccnc1)C1c2ccccc2C(=O)N1C1CCCCCC1 (stereo unspecified)	90	0.4	-6	/	/	-50	97
Cc1cn(-c2ccccc2)c(C)c1/C=N\Nc1nc(N2CCOCC2)nc(N2CCOCC2)n1	104	/	-9	i	0.94	/	/
O=S(=O)([O-])CCC[n+]1c(SCCCS(=O)(=O)O)sc2ccc(Cl)cc21	88	-0.8	-6	i	1	-7	122
COc1ccc(OC)c(NC(=O)C(CC(=O)O)Cc2ccc(Cl)cc2)c1 (stereo unspecified)	95	0.8	4	i	1	-16	103
Cc1cccc(N2C(=O)CSC23CCCCC3)c1	87	/	-2	i	0.96	-20	98
COc1ccc(C(=O)CSc2nnc(-c3cccnc3)n2Cc2ccco2)cc1	114	-2.6	7	i	1	/	/
Cc1cccc(-c2nc3c(c(=O)c4ccccc4n3C)c(=O)n2-c2ccccc2)c1	111	/	/	i	1	/	/
Cc1cccnc1NC(=O)c1cc2ccccc2oc1=O	99	/	5	i	1.1	0	94
COC(=O)c1c(C)[nH]c(C(=O)NCc2ccco2)c1C	103	/	1	i	0.91	/	/
CCOC(=O)c1nc(NCc2ccccc2C)c2ccccc2n1	110	/	0	i	0.78	/	/
O=C(N1CCCC1)C12CC3CC(CC(C3)C1)C2	99	-1.9	2	i	1.1	43	109
c1csc(-c2noc(CN3CCOCC3)n2)c1	113	/	/	i	1.1	/	/
CCc1cccc(NC(=O)C2CCCN2S(=O)(=O)c2ccc3c(c2)n(C)c(=O)c(=O)n3C)c1 (stereo unspecified)	90	/	/	i	0.91	/	/
Cc1ccc(N(CC(=O)NCc2ccco2)S(=O)(=O)c2ccccc2)cc1	99	-2.7	3	i	1.1	/	/
Cc1ccc(S(=O)(=O)Nc2ccccc2CNc2c(C)n(C)n(-c3ccccc3)c2=O)cc1	95	0.0	2	i	0.89	/	/
O=C(CN1C(=O)C2CC=CCC2C1=O)Nc1nc2ccccc2s1 (stereo unspecified)	99	/	-10	i	0.95	35	112
CCC1=C(OC(=O)N(CC)CC)N2C(=O)OC(=NCC3CC3)[C@]2(C)[C@H]2C1=CC[C@H]1C(=O)N(CC(=O)OC)C(=O)[C@H]12	109	/	/	i	0.86	/	/
COc1ccc(C(=O)c2oc3nc(C)cc(C)c3c2N)cc1	99	-2.5	-3	i	0.82	/	/
O=C(C1=C[C@@H](C2CC2)C[C@@H](OCc2ccc(CO)cc2)O1)N1CCOCC1	106	/	3	i	1.1	/	/
O=C(O)CCCCCn1c(SCC(=O)c2ccc(O)c(O)c2)nc2ccsc2c1=O	88	-0.6	38	i	1	-36	79
Cc1ccc(S(=O)(=O)NC2CCOC(C)(C)C2)cc1 (stereo unspecified)	97	-2.4	-5	i	1	15	47
COCc1cc(C)nc2oc(C(=O)c3ccccc3)c(N)c12	103	/	-3	i	0.94	/	/
CCn1ncc(CNC(=O)CCCSc2nc(-c3ccco3)cc(C(F)(F)F)n2)c1C	97	-2.3	-2	i	1	-83	113
N#Cc1ccsc1NC(=O)CCc1ccccc1	96	/	3	i	0.83	/	/
NC(=O)C1CCN(C(=O)c2cc(S(=O)(=O)N3CCOCC3)ccc2Cl)CC1	107	/	7	i	0.93	/	/
CCCCNc1nc(-c2ccccc2)nc(-n2ccnc2)n1	103	-2.0	-7	i	0.93	13	159
COc1cccc(CNn2cnnc2)c1OCc1ccccc1F	98	-0.7	-11	i	1.1	/	/
CC1CN(CC(O)COC(c2ccc(Cl)cc2)c2ccc(Cl)cc2)CC(C)O1 (stereo unspecified)	44	-1.7	-7	i	0.83	/	/
COC(=O)Cc1c(C)nc2nc[nH]n2c1=O	63	-1.0	0	i	0.7	-49	84
CC(C)N(C(=O)c1ccc(-c2ccccc2F)cc1)C(C)C	96	/	/	i	1.1	/	/
CCn1c(-c2ccc(-c3ccccc3)cc2)c[nH]c1=S	96	0.0	-1	i	1.1	-36	93
O=C(NCc1ccc2c(c1)OCO2)c1nnc(Cc2ccc(F)cc2)o1	104	-1.6	7	/	/	-25	91
CN1CCNC(=O)C1CC(=O)NCCc1ccccc1F (stereo unspecified)	121	/	-9	i	1	/	/
CCN(CC)C(=O)CSc1nc2ncc(Br)cc2[nH]1	103	0.8	-12	i	0.89	-44	114
COc1ccc(CNC(=O)COC(=O)c2cc(-c3ccc(Cl)s3)nc3ccccc23)cc1	100	-0.9	-9	/	/	-35	77
Cc1c(NC(=O)C(C)OC(=O)C(NC(=O)c2ccco2)C(C)C)c(=O)n(-c2ccccc2)n1C (stereo unspecified)	100	-4.6	6	i	0.85	60	96
CCOc1ccc(N2CC(C(=O)OC)CC2=O)cc1 (stereo unspecified)	106	-0.3	-3	i	0.83	-180	71
Cc1cc(NC(=O)Nc2cccs2)no1	50	-1.0	6	i	0.98	30	89
CCOC(=O)/C(C#N)=C\c1ccc(OCC(=O)Nc2ccc(C)cc2C)c(OC)c1	112	-0.5	-13	i	0.98	-8	129
COc1ccc(NC(=O)CC2C(=O)N(C)C(=S)N2Cc2ccc3c(c2)OCO3)cc1 (stereo unspecified)	104	-0.3	3	i	0.9	/	/
COc1cc(/C=C/C(=O)Nc2cc(S(=O)(=O)N3CCOCC3)ccc2N2CCCC2)cc(OC)c1OC	98	/	-3	i	0.76	/	/
NC(=O)C1CCN(C(=O)c2ccc3nc(N4CCCCC4)sc3c2)CC1	103	/	/	i	1.1	/	/
CCOc1ccc(C(=O)OCc2nnc(-c3cccs3)o2)cc1OC	115	-1.0	2	i	0.88	38	55
C=CCn1c(=NC(=O)c2cc(Cl)sc2Cl)sc2cc(S(N)(=O)=O)ccc21	109	-0.1	3	i	0.83	-62	62
Cn1cc(-c2nnnn2-c2ccc(Cl)cc2)c(C(F)(F)F)n1	102	-0.8	-6	i	0.99	/	/

High-throughput results: PubChem BioAssay, several laboratories

The order is random; 1.1% or so of the library scored in one or more.
